CapD inh: inhibitors of Bacillus anthracis CapD enzyme; z-score (no concentration beside the values); AID 492967; 140,000 compounds, 0.23% hits; purified CapD enzyme, fluorescence intensity read-out; active compounds read low; some hits fall short of the stated cut;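 active means z-score under -4 in either of two replicates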;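 further: stock transfer was 100 nL into about 40 µL; score is relative to mean and spread of the plate; one replicate is shown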
AID504770: E. coli YBA685 growth inhibition, screen for V. cholerae RctB inhibitors | E. coli YBA685 rctB-dependent plasmid, OD600 growth, 3 h; active compounds read low | z-score (concentration not given with the values) | 130,000 compounds, 0.27% hits;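 active means z-score under -2 on both plates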;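 further: wells of about 30 µL received 100 nL stock; score is relative to mean and SD of the test wells; the first replicate is given; strong numbers were not always called active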
An asterisk follows results filed as active; x = no result given. No enrichment for hits; overall some 0.41% were active at least once.

Order of values – CapD inh | AID504770
1. CC(C)c1ccc(NC(=O)C(NS(=O)(=O)c2cccc3nsnc23)C(C)C)cc1 (stereo not given)
  7.7 | -0.3
2. c1ccc(-c2ccsc2-c2ccccc2)cc1
  0.05 | x
3. COc1ccccc1C1CCN(C(=S)Nc2cccnc2)CC1
  -0.11 | x
4. COc1cc(Nc2nc(SCC#N)nc3ccccc23)cc(OC)c1
  0.83 | x
5. O=C(Nc1nc2ccc(Br)cc2s1)c1c(O)c2c(n(Cc3ccco3)c1=O)CCCC2
  -0.275 | x
6. COc1ccc(C2Nc3ccccc3C(=O)N2Cc2ccccc2)cc1CSc1nc2ccccc2s1 (stereo not given)
  2.93 | x
7. O=C(O)CCc1ccc2c(c1)CCO2
  -0.73 | 0.75
8. CN(C)c1ccc(P(=O)(N(C)C)N(C)C)cc1
  x | -0.25
9. CCCC(=O)N1CC(=O)Nc2ccc(Br)cc2C1c1ccc(F)cc1 (stereo not given)
  -0.625 | -0.85
10. Clc1cc(C=Nc2cccnc2)c(Cl)s1
  4.59 | 0.85
11. COc1ccc(C(OCC2OC(n3cc(C)c(=O)[nH]c3=O)CC2O)(c2ccccc2)c2ccc(OC)cc2)cc1 (stereo not given)
  5.95 | x
12. O=C(/C=C/N1CCOCC1)C(F)(F)F
  -3.1 | 0.6
13. CN(C)c1ccnc(Nc2ccc(I)cc2)c1C#N
  -0.41 | x
14. Cc1cccc(Oc2ccc(Cl)cc2N)c1
  x | -0.55
15. Cc1nn(-c2cc(C(F)(F)F)ccc2Cl)c(=O)c2noc(C)c12
  0.235 | -0.15
16. FC(F)(F)c1ccc2c(Cl)ccnc2c1
  0.475 | 0.8
17. O=C(c1coc2nc3ccccc3nc12)N1CCN(c2ccccc2)CC1
  3.91 | -1.9
18. COc1cccc(NC(=O)c2nn(-c3cccc(OC)c3)c(=O)c3ccccc23)c1
  -1.38 | 0.6
19. O=C(NCc1cccs1)c1ccc(Cl)cc1Cl
  0.915 | 0.75
20. COc1cc(C2CC(=O)Nc3c2ccc2ccccc32)cc(Br)c1OC (stereo not given)
  -0.015 | x

Record cards, from the list above. Screens in order: CapD inh | AID504770
`CN(C)c1ccc(P(=O)(N(C)C)N(C)C)cc1` is listed as x | -0.25
`O=C(c1coc2nc3ccccc3nc12)N1CCN(c2ccccc2)CC1` is listed as 3.91 | -1.9
`Cc1cccc(Oc2ccc(Cl)cc2N)c1` is listed as x | -0.55
`O=C(NCc1cccs1)c1ccc(Cl)cc1Cl` is listed as 0.915 | 0.75
`c1ccc(-c2ccsc2-c2ccccc2)cc1` is listed as 0.05 | x

Next part:
Order of values – CapD inh | AID504770
21. COc1ccc(OCCSc2nc3ccccc3n2CC(N)=O)cc1
  -1.54 | x
22. O=C(CSc1nnc(-c2ccco2)o1)NC1CCCCC1
  -0.285 | 0.5
23. CCOc1cc(C(F)(F)F)c(C(=O)N(CC)Cc2ccc(Cl)cc2)cn1
  -0.165 | -0.95
24. Cc1ccccc1C(=O)NC(=S)NC1CCSC1=O (stereo not given)
  -0.135 | -0.5
25. CC(C)CN(Cc1c(O)ccc2c1oc(=O)c1ccccc12)CC(C)C
  0.035 | -0.8
26. CC1=C(C(=O)Nc2cccc(C)n2)C(c2ccc(Br)cc2)C2=C(CC(C)(C)CC2=O)N1 (stereo not given)
  2.53 | x
27. CN1CCCC1CCNC(=O)OCCc1cccc(Cl)c1 (stereo not given)
  -0.075 | x
28. CCCC1O[C@@H]2C[C@H]3[C@@H]4CCC5=CC(=O)C=C[C@]5(C)[C@H]4[C@@H](O)C[C@]3(C)[C@]2(C(=O)CO)O1 (stereo not given in full)
  -0.435 | x
29. O=C(c1ccccc1)N1CCN(C(=O)c2cnn3c2NC(c2ccc(Br)cc2)CC3C(F)(F)F)CC1 (stereo not given)
  0.22 | x
30. O=C(c1ccc2[nH]c(=O)oc2c1)c1ccc2[nH]c(=O)oc2c1
  -0.165 | -0.2
31. CCOc1nc2c(ncn2C)c(=O)n1C
  -0.005 | 0.2
32. COc1ccc(CNCC(C)NCc2ccc(OC)c(OC)c2)cc1OC (stereo not given)
  -0.555 | -0.45
33. O=C(NCc1ccco1)C(c1ccco1)N(C(=O)Cn1nnc2ccccc21)c1ccccc1 (stereo not given)
  x | -0.85
34. O=C(CSc1ccccn1)Nc1ccc(C2CCCCC2)cc1
  0.33 | 0.3
35. COC(=O)c1c(N)n(Cc2ccco2)c2nc3ccccc3nc12
  x | 0.35
36. COc1ccc(/C=C/C(=O)NCC2(c3ccc(OC)c(OC)c3)CCOCC2)cc1OC
  6.54 | x
37. Cc1onc(-c2c(F)cccc2Cl)c1C(=O)Nc1nc(=O)[nH]s1
  0.145 | x
38. Cc1nc(N2CCOCC2)c2c(C)c(C(=O)Nc3ccc(F)cc3F)sc2n1
  0.2 | x
39. COc1cc(OC)c(NC(=O)c2sc3ncnc(N4CCCCC4C)c3c2C)cc1Cl (stereo not given)
  -0.385 | -0.4
40. CSc1nc2ccc(I)cc2c(=O)n1C
  0.495 | 0.85
41. CN1CCN(CCCNC(=O)c2ccc(Cn3c(=S)[nH]c4ccc(Br)cc4c3=O)cc2)CC1
  -1.03 | x
42. CCC(O)(CCN1CCCCC1)c1ccccc1 (stereo not given)
  x | -0.55
43. O=C(CC1Nc2ccccc2NC1=O)Nc1ccccc1C(F)(F)F (stereo not given)
  x | -0.25
44. c1ccc(C2CN(Cc3ccco3)C(c3ccccc3)O2)cc1 (stereo not given)
  0.2 | -0.8
45. CC(=O)NCC(=O)OCc1ccc(COC(=O)CNC(C)=O)cc1
  x | 1.05
46. O=C(O)c1ccccc1C(=O)Nc1cccnc1
  x | -0.4
47. Nc1nonc1C(=O)OCC(=O)Nc1ccccc1
  -0.105 | 1
48. Cc1cccc(-c2n[nH]c(S(C)(=O)=O)c2C#N)c1
  0.15 | -0.15
49. CNC(=O)c1ccsc1NC(=O)c1ccccc1
  0.26 | -0.95
50. O=C(/C=C/c1cccs1)OCc1nc2ccc(Cl)cc2n1CCO
  x | 0.85
51. O=c1c2cnn(CCO)c2ncn1Cc1ccc(C(F)(F)F)cc1
  x | 0.5
52. N#CCCn1cc(/C=C2\NC(=S)NC2=O)c(-c2ccc3c(c2)OCO3)n1
  x | -2.9
53. COc1ccccc1C1C2=C(CC(C)(C)CC2=O)Nc2ccccc2N1C(=O)Cc1ccccc1 (stereo not given)
  1.89 | x
54. CCOc1ccccc1Oc1c(C)oc2cc(O)ccc2c1=O
  30.7 | -0.5
55. CCCn1c(=N)c(C(=O)OC)cc2c(=O)n3ccccc3nc21
  -0.51 | 1.4
56. COc1ccc(C)cc1-n1nnnc1SCC(=O)N1CCC(C(=O)Nc2nccs2)CC1
  x | 0.95
57. CCc1ccc(NC(=O)CSC2=Nc3ccccc3C3=NC(C(C)C)C(=O)N23)cc1 (stereo not given)
  -0.6 | -0.8
58. O=C(Nc1sc2c(c1C(=O)NCCc1ccccc1)CCC2)c1ccco1
  x | 1.85
59. Cn1c(=O)[nH]c(=O)c2c1nc(CN1CCN(c3ccccc3F)CC1)n2CCc1ccccc1
  -0.605 | -0.7
60. O=C(CN1C2=NCCCN2c2ccccc21)c1ccc(Br)s1
  -0.085 | -0.55
61. N#Cc1cc2[nH]c3ccccc3c2n(-c2ccc([N+](=O)[O-])cc2)c1=N
  -0.33 | x
62. Cn1c(=O)c2c(nc(Sc3nc4ccccc4n3CC(=O)N3CCOCC3)n2C)n(C)c1=O
  0.4 | x
63. O=C(CSc1nc2ccccc2s1)c1cc2ccccc2o1
  -0.59 | -0.55
64. CCCn1c(N)cc(=O)n(CCC)c1=O
  x | -0.6
65. O=C(Nc1ccc(F)cc1F)NC1Cc2ccccc2C1
  -0.045 | x
66. CSc1nc(N)nc2sc(C(=O)c3ccc(Cl)cc3)c(N)c12
  -0.26 | 0.1
67. O=c1oc2ccccc2cc1-c1nnc(Nc2cccc(C(F)(F)F)c2)s1
  0.51 | -0.6
68. Nc1sc(-c2ccccc2)cc1C(=O)O
  10 | -0.6
69. Cc1ccc(S(=O)(=O)Nc2ccc(F)cc2)cc1C(=O)N(C)CCO
  x | 0
70. O=C(N/N=C/c1ccc(OCCCF)cc1)c1ccc(Cl)cc1Cl
  -0.205 | x
71. Cn1cccc1Cc1nnc(SCC(=O)Nc2ccccc2F)n1CCc1ccccc1
  -0.56 | 0.9
72. CN1CCC(N)=NC1=O
  x | 1.65
73. COC(=O)c1ccc(C2C(C#N)=C(N)Oc3n[nH]c(-c4ccc5c(c4)OCO5)c32)cc1 (stereo not given)
  0.16 | x
74. S=c1nn[nH]n1Cc1ccccc1
  0.035 | x
75. O=C(CSc1n[nH]c(-c2ccncc2)n1)N(c1ccccc1)C1CCCCC1
  x | -0.5
76. O=C(NCc1cccc2ccccc12)C(c1ccccc1)c1ccccc1
  0.325 | 1.05
77. CC(C)OC(=O)CCN1C(=O)/C(=C/c2ccccc2)SC1=S
  0 | 0
78. COC(=O)C1(O)/C(=C(\O)c2ccc(OC)cc2)C(=O)C(=O)N1c1ccccc1 (stereo not given)
  -0.32 | x
79. O=C(Cn1ncc2c(=O)oc3ccccc3c21)NCc1cccnc1
  -0.2 | 0.4
80. Cc1c(Cl)cccc1NC(=S)NCc1cccn1C
  -1.01 | 1.85

Next section
Order of values – CapD inh | AID504770
81. Nc1cc(N)nc(SCC(=O)Nc2ccccc2)n1
  x | 0.6
82. CCOc1ccc(NC(=O)c2sc3ncn(CC(=O)Nc4cccc(C(F)(F)F)c4)c(=O)c3c2C)cc1
  -0.99 | x
83. Cc1cc(-c2onc(C)c2-c2noc(C)n2)no1
  0.195 | 0.9
84. CCOC(=O)NN1CC(O)=C(c2nc3ccccc3n2C)C1=N
  x | -0.5
85. O=C(Nc1ccc(S(=O)(=O)NC2=NCCCCC2)cc1)c1cccs1
  x | 0.3
86. Cc1ccc(-n2[nH]c(C)c(C=Nc3c(Cl)cc(Cl)cc3Cl)c2=O)cc1C
  -0.09 | x
87. Nc1ccc(S(=O)(=O)N2CCOC3CCCCC32)cc1 (stereo not given)
  0.04 | x
88. COc1ccccc1OCCSc1nc(C)cc(C)n1
  x | -0.8
89. Cc1nc2ccccc2c2oc(C(=O)NCc3ccc(Cl)cc3)cc12
  1.21 | 1.2
90. CCOC(=O)c1c(NC(=O)C(C)Sc2nnc(CNC(=O)COc3ccc(Cl)cc3)n2C)sc2c1CCC2 (stereo not given)
  -0.585 | x
91. CC(O)C(O)(c1ccccc1)c1ccccc1 (stereo not given)
  0.25 | 0.35
92. Nc1nnc(SCC(=O)NCc2ccco2)s1
  0.28 | -0.85
93. Cc1nc2cccc(C(=O)O)c2o1
  12.8 | -1.1
94. CC(C(=O)c1ccccc1)n1cnc2ccccc2c1=O (stereo not given)
  x | 0.05
95. O=C(Nc1nc(-c2ccco2)c(-c2ccco2)s1)OCc1ccccc1
  x | 1.9
96. CC1(C)CC2CC(C)(CN2C(=O)COC(=O)C2CCN(c3ccc(C(F)(F)F)cn3)CC2)C1 (stereo not given)
  x | 0.25
97. CCOC1(NC(=O)c2ccccc2)C(C)=CC(=O)C=C1C
  -0.695 | -0.05
98. Cc1nn(C(=O)CNC(=O)c2ccccc2)c(C)c1C
  0.335 | -0.75
99. CCNS(=O)(=O)c1cc(S(C)(=O)=O)ccc1Cl
  0.405 | 0.65
100. Cc1cccn2cc(CNc3nc4ccccc4s3)nc12
  0.24 | -0.4
101. O=c1c2ccccc2c(-c2ccc(F)cc2)nn1-c1ccc(OC(F)(F)F)cc1
  0.275 | x
102. S=C(Nc1ccccc1)N1CCCC1
  -0.12 | -0.8
103. C=CCN=C1CCCc2c1[nH]c1ccc(C)cc21
  0.16 | -1.05
104. CCN(c1ccccc1)S(=O)(=O)c1ccc(CCN2C(=O)c3cccnc3C2=O)cc1
  -0.055 | -0.5
105. Cc1onc(-c2c(F)cccc2Cl)c1C(=O)OCC(=O)NC1CC1
  x | 0.15
106. Cn1c(SCCn2c(=S)n(C)c3ccccc32)nc2ccccc21
  0.49 | 0.3
107. COc1ccc(CCNc2ccc(C(=O)N3CCCC3)cc2S(=O)(=O)Nc2cccc(C(F)(F)F)c2)cc1OC
  2.69 | x
108. COc1cccc(/C=c2\sc3nnc(-c4ccccc4)n3c2=O)c1
  -0.665 | x
109. O=C(C1COc2cc(S(=O)(=O)N3CCOCC3)ccc2O1)N1CCOCC1 (stereo not given)
  -1.1 | 0.35
110. O=C(CCSc1nc(-c2ccco2)cc(C(F)(F)F)n1)NC1CC1
  x | -0.5
111. CCn1c(C2CC(=O)N(CCc3ccccc3)C2)nc2ccccc21 (stereo not given)
  x | 1
112. CC(C)[C@H](NC(=O)COc1ccc2ccccc2c1)C(=O)O
  x | -0.85
113. O=C(CCc1ccccc1)OCCN1CCOCC1
  -0.18 | 2.1
114. Nc1nnnn1CC(=O)NC1(C(=O)Nc2ccccc2)CCCCC1
  -1.46 | 0.15
115. COC(=O)c1cccn(Cc2cc(C(F)(F)F)cc(C(F)(F)F)c2)c1=O
  56.5 | x
116. CCOC(=O)c1c(-c2ccccc2)oc2c1cc(OC(=O)Cc1ccccc1)c1ccccc12
  3.9 | x
117. C=CCn1c(-c2ccc(=O)n(Cc3ccc(Cl)cc3Cl)c2)n[nH]c1=S
  -0.525 | x
118. Cc1ccc(S(=O)(=O)NCc2nnc(NC(=O)c3ccc(NC(=O)C(F)(F)F)cc3)s2)cc1
  1.04 | x
119. O=C(Cn1c(=O)n(Cc2ccco2)c(=O)c2sc3ccccc3c21)NCc1ccccc1
  8.69 | -1
120. Cc1nc2cc(NC(=O)N3CCCC3)ccc2n1C
  x | 1.05
121. Cn1cccc1/C=C/C(=O)O
  x | -0.15
122. O=C(COc1ccc(-c2nnco2)cc1)Nc1ccc2c(c1)OC(F)(F)O2
  x | 1.5
123. Cc1ccc2nc3ccc(N4CCC(Cc5ccccc5)CC4)nn3c(=O)c2c1
  0.195 | -0.65
124. O=C(CC1C(=O)N(Cc2ccccc2)C(=S)N1CCc1ccc(Cl)cc1)Nc1ccccc1 (stereo not given)
  0.17 | 0.7

From no. 120 as far as 121, as listed above:
Order of values – CapD inh | AID504770
120. Cc1nc2cc(NC(=O)N3CCCC3)ccc2n1C
  x | 1.05
121. Cn1cccc1/C=C/C(=O)O
  x | -0.15

Screens as filed in PubChem BioAssay.
